# High-throughput results as filed in PubChem BioAssay.
# GALR2 agonist: GALR2 (human) receptor agonism. O43603. GALR2-expressing cells, agonist activation read-out. activation, %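 (tested at 5 µM)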. 140,000 compounds, 0.48% hits. AID 803;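 active = above mean plus 3 SD of all compounds, about 5% in these data, not always enough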;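 also: 0% = vehicle buffer wells and 100% = reference agonist at full effect; tested in CHO reporter cells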
# Insulin prom inh: TRM-6 insulin promoter activity inhibition; inhibition, % at 2 µM; TRM-6 cells (human fetal islet line), insulin promoter-eGFP reporter, imaging; reporter expression induced with tamoxifen; 130,000 compounds, 0.9% hits;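 active = inhibition above the mean plus 3 SD, with well images judged a real hit on visual review, cut at about 60% in these data, passing the limit was not always enough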
# PKD1 kinase inh: inhibitors of human PKD1 kinase; inhibition, %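 (about 10 µM by stock and volumes)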; PKD1 kinase fluorescence polarization assay; 200,000 compounds, 0.056% hits; Q15139;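 active = inhibition of 50% or more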;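 also: controls were vehicle for no effect and a reference inhibitor for full effect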
# Target sequence (Q15139 whole entry, looked up): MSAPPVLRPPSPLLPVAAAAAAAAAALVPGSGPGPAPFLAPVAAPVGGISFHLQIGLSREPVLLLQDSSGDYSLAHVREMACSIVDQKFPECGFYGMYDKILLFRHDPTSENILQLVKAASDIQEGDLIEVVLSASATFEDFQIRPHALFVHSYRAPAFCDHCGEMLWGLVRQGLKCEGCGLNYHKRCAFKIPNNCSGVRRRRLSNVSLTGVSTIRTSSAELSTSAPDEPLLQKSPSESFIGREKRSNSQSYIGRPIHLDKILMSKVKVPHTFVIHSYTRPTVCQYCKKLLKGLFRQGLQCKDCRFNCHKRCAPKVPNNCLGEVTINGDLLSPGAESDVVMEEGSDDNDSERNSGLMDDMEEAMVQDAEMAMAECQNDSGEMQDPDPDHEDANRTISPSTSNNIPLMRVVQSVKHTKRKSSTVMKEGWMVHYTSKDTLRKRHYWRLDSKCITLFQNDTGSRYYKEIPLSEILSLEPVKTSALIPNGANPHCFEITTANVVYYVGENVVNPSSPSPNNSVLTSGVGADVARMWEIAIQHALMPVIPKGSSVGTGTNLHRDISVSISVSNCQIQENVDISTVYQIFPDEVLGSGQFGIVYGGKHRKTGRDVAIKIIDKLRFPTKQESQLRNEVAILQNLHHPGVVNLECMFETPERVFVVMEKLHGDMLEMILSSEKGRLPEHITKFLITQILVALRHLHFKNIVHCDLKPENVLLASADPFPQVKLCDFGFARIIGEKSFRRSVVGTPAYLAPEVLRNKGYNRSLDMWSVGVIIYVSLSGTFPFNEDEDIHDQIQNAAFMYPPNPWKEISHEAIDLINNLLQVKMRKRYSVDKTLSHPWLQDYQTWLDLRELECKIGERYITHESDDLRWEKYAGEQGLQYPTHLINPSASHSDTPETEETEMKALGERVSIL
# RGS16-Gao HTS: regulators of human RGS16-Galphao interaction. O15492+P09471. bead-based flow cytometry RGS16-Galphao binding, fluorescence; actives lie on both sides. binding response (% of control), % at 10 µM. 220,000 compounds, 0.38% hits. AID 1441;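 active = below 25% or above 175%, edge rows of some plates excepted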;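 also: Galphao activated by GDP with aluminum fluoride before binding; 100% = wells without compound and 0% = beads without RGS; some results beyond the cut were filed as inactive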
# HSV augment: HSV replication enhancement; HSV replication augmentation in cells, fold increase; maximum fold increase; 220,000 compounds, 0.005% hits; AID 1956;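 active = peak rise of 1.5-fold or more in the series; tested in PC3 cells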;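 also: first round at 10 µM; read as green reporter fluorescence; hits show the peak of a series up to 25 µM; 1 = signal of infected wells without compound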
# Insulin prom inh cell count: also measured in Insulin prom inh; calls as there; normalized cell count, %; measured here: cell count, toxicity; reference of the scale not given here;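 cells exposed to compound for 48 h; stained nuclei by imaging scaled within each plate; lower means fewer cells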
# HSV augment primary fold: recorded beside HSV augment, whose call it bears; fold increase; compound at 10 µM; measured here: primary screen fold increase 10 uM; tested in PC3 cells;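 GFP signal in the first replicate; 1 = infected wells without compound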
# * hit, by the source's call; i = inactive; · = no result given.
# Second line of a record: GALR2 agonist	Insulin prom inh	Insulin prom inh cell count	PKD1 kinase inh	RGS16-Gao HTS	HSV augment	HSV augment primary fold
> COc1ccc(NC(C)=O)cc1NC(=O)CSc1nnc(-c2ccc(F)cc2)n1N
    -0.3	·	·	-6	109	i	0.85
> Cc1ccc(C(=O)Nc2nc(C)c(C)s2)o1
    -0.7	23	137	0	117	i	1
> CC(C)(C)[C@@H]1C=C(C(=O)O)O[C@H](OCc2ccc(CO)cc2)C1
    ·	·	·	-2	102	i	1
> COc1ccc(N2CCN(c3cnc4ccccc4n3)CC2)cc1
    ·	-20	103	-1	98	i	0.98
> COC(=O)c1cc2c(N)c(C(=O)c3ccc(Cl)cc3)sc2nc1C(OC)OC
    ·	·	·	·	98	i	1.3
> O=C1c2ccccc2NC(c2ccccc2O)N1NS(=O)(=O)c1ccccc1 (centres undefined)
    ·	44	70	-4	95	i	1
> Cc1ccc(N=C2NC(=O)c3cccc([N+](=O)[O-])c32)cc1
    -0.4	·	·	-1	105	i	1
> Cn1cc(-c2cccc(Cl)c2)cc(C#N)c1=O
    ·	·	·	1	102	i	0.96
> Nc1cc(-c2ccccc2)nn1Cc1ccc(Cl)cc1
    -3.1	·	·	4	105	i	0.96
> O=S(=O)(c1ccc(N2CCCCCC2)nc1)N1CCCC1
    ·	9	129	-2	110	i	1.1
> O=C(CSCc1ccccc1)Nc1cccc(C(=O)Nc2ccccc2C(=O)O)c1
    -1.9	·	·	-1	77	i	0.86
> COc1ccc(C(=O)N2CC3(CC(c4cccc(NC(=O)CC(c5ccccc5)c5ccccc5)c4)=NO3)C[C@H]2C(N)=O)cc1 (some centres undefined)
    ·	·	·	·	99	i	0.91
> COc1ccccc1C(=O)N1CCN(CCc2ccccc2)CC1
    -2.8	29	121	-15	101	i	1
> COC(=O)C(CC(C)C)NC(=O)CSc1nc(-c2ccccc2)c(C#N)c(=O)[nH]1 (centres undefined)
    -1.4	0	155	-1	99	i	0.98
> CCOc1ccccc1C(=O)NC1CC2CCCC(C1)N2Cc1nnnn1Cc1ccco1 (centres undefined)
    1.4	·	·	7	120	i	1
> CC(=O)NC(CC(=O)N(C)Cc1c(F)cccc1Cl)c1ccccc1 (centres undefined)
    ·	·	·	-13	99	i	0.97
> Cc1ccsc1C(=O)OC1CCOC1=O (centres undefined)
    -0.5	0	111	-1	97	·	·
> O=C1CC(C(F)(F)F)=NN1
    ·	·	·	·	101	i	1
> O=C(NCCCn1ccnc1)C(=O)NCc1ccccc1
    -1.2	3	33	-5	95	i	0.79
> CC(C)C(OC(=O)C1CCCO1)C(=O)NC1CCCC1 (centres undefined)
    -1.9	·	·	-6	98	i	1.2
> Cc1ccc(N(C(=O)c2snc(C(N)=O)c2N)C(C(=O)NCCC(C)C)c2ccco2)cc1 (centres undefined)
    ·	-15	125	0	102	i	0.89
> O=S(=O)(c1cccc(-c2csc(-c3ccccc3)n2)c1)N1CCOCC1
    -1.2	·	·	11	107	i	0.84
> CC(=O)Nc1ccc(S(=O)(=O)Nc2ccc(N3CCOCC3)c(F)c2)cc1
    1.0	·	·	4	97	i	0.94
> COC(=O)C(C)SC1=N/C(=C/c2ccc(-n3cncn3)cc2)C(=O)N1 (centres undefined)
    ·	·	·	·	100	i	0.83
> O=C(c1cncc(Br)c1)N1CCN(c2ccc([N+](=O)[O-])cc2)CC1
    0.6	29	78	-5	101	i	0.93
> CCc1[nH]nc2c1C(C1C=CCCC1)C(C#N)=C(N)O2 (centres undefined)
    ·	·	·	1	97	i	0.72
> CCc1cc2c(NC(Cc3c[nH]c4ccccc34)C(=O)O)nc(C)nc2s1 (centres undefined)
    -1.6	50	106	3	107	i	1.1
> Cc1ccc(S(=O)(=O)N2CCCC(c3nnc4n3-c3ccccc3SC4)C2)cc1 (centres undefined)
    -0.8	14	139	-9	105	i	0.96
> Fc1ccccc1CSc1ncnc2sc3c(c12)CCCC3
    -0.1	·	·	-2	105	i	1
> Nc1ccc(Cl)c(NC(=O)c2cccs2)c1
    -3.1	-21	68	3	99	i	0.95

# Ordered by count of non-hydrogen atoms (low to high): some entries from above.
# Second line of a record: GALR2 agonist	Insulin prom inh	Insulin prom inh cell count	PKD1 kinase inh	RGS16-Gao HTS	HSV augment	HSV augment primary fold
> O=S(=O)(c1ccc(N2CCCCCC2)nc1)N1CCCC1
    ·	9	129	-2	110	i	1.1
> COc1ccccc1C(=O)N1CCN(CCc2ccccc2)CC1
    -2.8	29	121	-15	101	i	1
> CCc1cc2c(NC(Cc3c[nH]c4ccccc34)C(=O)O)nc(C)nc2s1 (centres undefined)
    -1.6	50	106	3	107	i	1.1
> COC(=O)c1cc2c(N)c(C(=O)c3ccc(Cl)cc3)sc2nc1C(OC)OC
    ·	·	·	·	98	i	1.3
> Cc1ccc(S(=O)(=O)N2CCCC(c3nnc4n3-c3ccccc3SC4)C2)cc1 (centres undefined)
    -0.8	14	139	-9	105	i	0.96

# Additional entries
# Second line of a record: GALR2 agonist	Insulin prom inh	Insulin prom inh cell count	PKD1 kinase inh	RGS16-Gao HTS	HSV augment	HSV augment primary fold
> COc1ccc(N2CC(NC(=O)N3CCN(c4ccccc4)CC3)CC2=O)cc1 (centres undefined)
    ·	·	·	0	105	i	1
> Cc1cc(C)nc(SCC(=O)OCC(=O)Nc2nc3ccccc3s2)n1
    -1.0	-7	103	-3	102	i	1
> Cc1ccc(NC(=O)CCNS(=O)(=O)c2cccc3nonc23)cc1Cl
    ·	·	·	1	97	i	0.99
> Cc1cc(O)ccc1N/C=C(\C#N)c1nc2ccccc2o1
    -0.1	·	·	-11	98	i	0.97
> CS(=O)(=O)N(CC(=O)NCC1CCCO1)c1cc(Cl)c(Cl)cc1Cl (centres undefined)
    ·	·	·	-5	108	i	0.79
> Cc1cc2nnc(SC3CCCCN(C(=O)c4ccc(F)cc4)C3=O)n2c2ccccc12 (centres undefined)
    -0.6	0	68	1	100	·	·
> O=C(COC(=O)[C@@H]1CC(O)CN1S(=O)(=O)c1ccc2c(c1)OCCO2)Nc1ccccc1F (some centres undefined)
    ·	-8	130	-1	107	i	1
> Cc1cc(=O)n2[nH]c(-c3ccccc3Cl)cc2n1
    -2.8	·	·	-3	104	i	0.96
> CC(C)c1nc2sc3c(=O)[nH]cnc3c2c2c1CCC2
    -0.6	·	·	-6	99	i	1.2
> O=C(CSCc1ccc([N+](=O)[O-])cc1)NC1CC1
    0.1	0	96	-2	98	i	1.1
> O=C(Cn1c(=O)oc2ccccc21)NC(=O)NCc1ccco1
    -2.7	-14	48	-2	93	i	0.99
> CCCOc1ncnc2c1[nH]c1ccc(C)cc12
    ·	·	·	·	96	i	1.2
> Nn1c(SCc2cccc(Br)c2)nnc1-c1cccnc1
    ·	·	·	·	102	i	1
> CCOC1=NN(c2ncc(C(F)(F)F)cc2Cl)C(=O)/C1=C/N(C)C
    ·	38	109	1	100	i	1.1
> CCOc1ccc(-c2nnc(N)s2)cc1
    -2.1	-33	38	-4	101	i	0.84
> CCOC(=O)c1c(CN2CCC(C)CC2)oc2ccc(OC)cc12
    -1.4	·	·	-3	107	i	0.9
> COc1ccc(-n2c3nc4ccccc4nc3c3c(=N)oc(C)nc32)cc1
    0.0	31	178	-3	99	i	0.9
> Cc1occc1C(=O)NNC1=CC(=O)CC(C)(C)C1
    -1.2	22	106	-8	101	i	1
> CC1=C(C(=O)OCc2ccccc2)C(c2ccccc2OC(F)F)NC(=O)N1 (centres undefined)
    -1.2	-300	34	0	94	i	1.1
> Cc1noc(C)c1C(=O)N1CCC(C(=O)c2ccccc2)CC1
    ·	·	·	·	98	i	0.91
> COC/C=C/C1=CC2=CC(=O)C(C)(OC(=O)c3cnc4ccccc4n3)C(=O)C2=CN1C(CO)CO (centres undefined)
    ·	·	·	·	87	i	1.1
> CCOC(=O)c1ccc(N2C(=O)C(O)=C(C(C)=O)C2c2ccccn2)cc1 (centres undefined)
    -1.5	20	62	8	99	i	1
> CCOc1ccc(N2C(=O)C3C(c4ccccc4F)NN(C(=O)c4ccc(C)cc4)C3C2=O)cc1 (centres undefined)
    -0.9	-243	70	-10	·	·	·
> C[N+]1(CCn2ccc3ccccc32)CCCCC1
    ·	-80	109	-3	98	i	0.88
> CC1(c2ccc(OC(F)F)cc2)NC(=O)N(CC(=O)Nc2ccc(S(N)(=O)=O)cc2)C1=O (centres undefined)
    ·	7	99	-6	106	i	1
> c1ccc(-c2ccccc2-c2nc(-c3ccncc3)no2)cc1
    1.9	79*	38*	0	108	i	0.66
> CCN1C(=O)[C@H]2[C@H]3[C@H](O)[C@H](O)C/C(=N\O[C@H](C)c4cn([C@H](CO)Cc5ccccc5)nn4)[C@@H]3CC[C@H]2C1=O
    -0.4	-29	104	-9	106	·	·
> Cc1cc(C(=O)NCCCC(=O)O)c(C)o1
    -0.2	36	120	6	229	i	1
> CC1=CC(C)C2(CO)COC(c3ccc(O)cc3)C1C2C (centres undefined)
    ·	-32	78	13	103	i	0.93
> Cc1ccc(C)c(C(=O)NCCN(C)C)c1
    1.7	-15	103	-4	109	i	0.91
> CC(=O)Nc1cccc(OCC(=O)NC(C)C(C)C)c1 (centres undefined)
    -1.6	14	46	3	102	i	0.91
> O=C(N/N=C/c1cc(Br)cs1)c1ccccc1[N+](=O)[O-]
    -0.2	15	108	-6	109	i	0.71
> CCOc1cc(NC(=O)c2cccs2)c(OCC)cc1NC(=O)c1cccnc1
    ·	26	54	7	98	i	1
> COc1ccc(C2C(C(C)=O)=C(O)C(=O)N2CCc2c[nH]c3ccccc23)cc1 (centres undefined)
    ·	·	·	-10	103	i	0.94
> CC1CCCCC1NC(=O)C1CCN(S(=O)(=O)c2ccc(-n3cnnn3)cc2)CC1 (centres undefined)
    -1.3	-19	136	-7	100	i	0.98
> O=C(CSc1nnc(-c2ccc(Cl)s2)o1)N1CCCc2ccccc21
    -1.9	7	97	-5	89	i	0.92
> CCn1cc(CN(C)C(=O)/C=C/c2ccc([N+](=O)[O-])cc2)c(C)n1
    -0.3	·	·	6	107	i	0.97
> O=C(c1ccccc1)c1c(O)cc(-c2ccccc2)oc1=O
    0.6	48	108	-1	99	i	0.92
> O=C(CCCCn1c(=O)[nH]c2ccccc2c1=O)NC1CCN(Cc2ccccc2)CC1
    -0.4	10	86	-9	101	·	·
> O=C(c1ccc(F)cc1)N1CCCC(C(=O)N2CCc3ccccc3C2)C1 (centres undefined)
    ·	·	·	·	108	i	0.87
> NS(=O)(=O)c1ccc(NC(=O)C2CCCO2)cc1 (centres undefined)
    -1.3	50	134	-6	91	i	0.9
> COc1cccc(CNC(=O)c2cnc(-c3ccccn3)nc2C(F)(F)F)c1
    -3.2	19	113	0	100	·	·
> COc1ccc2nc(SCC(=O)Nc3c(C)cccc3C)[nH]c2c1
    -1.6	-8	95	-12	104	i	0.94
> NC(=O)/C(=C/c1ccc2c(c1)OCO2)NC(=O)c1ccco1
    ·	·	·	1	67	i	0.98
> Cn1cc(CN2CCN(Cc3ccccc3)CC2)c(-c2cccc(Cl)c2)n1
    ·	·	·	-1	97	i	0.99
> Cc1ccnc(NS(=O)(=O)c2ccc(NS(C)(=O)=O)cc2)n1
    ·	·	·	·	98	i	1.1
> Cc1cccc2sc(NNC(=O)c3ccc4c(c3)OCCO4)nc12
    -1.7	0	126	-16	·	·	·
> O=S(=O)(NC1CC1)c1ccc2c3c(cccc13)CC2
    ·	-22	126	0	98	i	0.9
> Cc1ccc(NC(=O)COc2nc(C)cs2)cc1
    -1.5	-107	132	-5	112	i	0.91
> COC(=O)C1=C(C)NC(=O)CC1c1ccccc1OC (centres undefined)
    ·	·	·	3	98	i	0.89
> Cc1ccccc1-n1nc2c(c1NC(=O)c1c(-c3ccccc3Cl)noc1C)CS(=O)(=O)C2
    0.7	-118	92	-7	99	·	·
> CCOC(=O)CSc1nc2ccc(N3CCOCC3)cc2c(=O)n1Cc1ccccc1
    -0.2	-43	123	-1	97	i	0.81
> CCOC(=O)c1ccc(NS(=O)(=O)c2cc(C)ccc2OC)cc1
    -1.7	9	78	0	111	i	0.91
> O=C(NNc1cccc(Cl)n1)c1ccc(Cl)cc1Cl
    -1.2	-9	126	2	97	i	0.94
> Cc1ccc(S(=O)(=O)N2CCN(C(=O)c3ccccc3)CC2)cc1
    -1.1	-25	41	-3	107	i	0.84
> COc1ccc(NC(=O)Nc2cc(C)ccc2F)cc1OC
    ·	·	·	7	101	i	0.91
> CCCn1c(N2CCN(CC(=O)c3c(C)n(C)c4ccc(OC)cc34)CC2)nc2c1c(=O)[nH]c(=O)n2C
    2.6	63	51	11	92	·	·
